# Pol kappa inh = DNA polymerase kappa (human) inhibition. Q9UBT6. 400,000 compounds, 0.53% hits. AID 588579. purified Pol kappa, fluorescent DNA synthesis assay, 10 min. Potency, µM (titrated, usually from 107 µM), without a hit: at the top dose activity, negative = inhibition, hits mostly inhibitors; note: % is set by controls: 0 for no effect and ±100 for the full control effect
#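 Enzyme at 10 nM met test compounds for 15 min at room temperature. Substrate addition (50 nM final) began the reaction, which was monitored by fluorescence at 0 and 10 min.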
# POLH inh = DNA polymerase eta (human) inhibition; Q9Y253; recombinant Pol eta, fluorescent DNA replication assay; Potency, µM (doses to about 114 µM), without a hit: top-dose activity change, negative = inhibition, actives largely listed as inhibitors; 390,000 compounds, 1.2% hits; AID 588591; note: % is set by controls: 0 for no effect and ±100 for the full control effect
#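 Fluorescent replication assay: 50 nM final substrate added after a 15 min room-temperature compound preincubation with 10 nM enzyme. Signal taken at 0 min and again at 10 min.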
# APE1 inh = inhibitors of human APE1 endonuclease | P27695 | 350,000 compounds, 0.35% hits | recombinant APE1, TAMRA/BHQ-2 abasic DNA cleavage fluorescence | Potency, µM (titrated, usually from 65.8 µM), inactives show at the top dose activity change, negative = inhibition, most hits filed as inhibitors;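 note: plate controls were vehicle for no effect and reference inhibitor for full effect; nearly all actives have a fitted effect of over 55% in size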
#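 Enzyme (0.75 nM final) and test compound are incubated 15 min at room temperature before adding 50 nM quenched THF abasic-site duplex. Cleavage dequenches TAMRA, followed at 525/598 nm over three reads one minute apart.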
# POLB inh = blocks human DNA polymerase beta activity | P06746 | Pol beta primer extension/strand displacement, fluorescence kinetic | Potency, µM (top dose mostly 114 µM), inactives show at the highest dose activity change, negative = inhibition, most hits filed as inhibitors | 340,000 compounds, 1.3% hits | AID 485314; note: % is set by controls: 0 for no effect and ±100 for the full control effect
#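 10 nM enzyme + cpd, 15 min RT; start with substrate 50 nM final; read 0 min and after 10 min RT. Corrected, normalized data; 4-parameter Hill curve fit.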
# BLM inh = Bloom syndrome helicase (human) inhibition; 350,000 compounds, 0.2% hits; P54132; AID 2528; Potency, µM (titrated, usually from 56.1 µM), for the others: at the highest dose activity change, negative = inhibition, hits mostly inhibitors; recombinant BLM DNA unwinding, fluorescence dequenching;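 note: plate controls were vehicle for no effect and no enzyme for full effect; nearly all actives have a fitted effect of over 35% in size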
# G9a inh = inhibitors of human histone lysine methyltransferase G9a; Q96KQ7; G9a H3K9 monomethylation, AlphaScreen, 2 h; Potency, µM (doses to about 102 µM), for the others: at the top dose activity, negative = inhibition, usual class: inhibitors; 350,000 compounds, 8.8% hits; note: % is set by controls: 0 for no effect and ±100 for the full control effect; nearly all actives have a fitted effect of over 75% in size
# Target sequence (Q96KQ7 913-1193 limits assumed): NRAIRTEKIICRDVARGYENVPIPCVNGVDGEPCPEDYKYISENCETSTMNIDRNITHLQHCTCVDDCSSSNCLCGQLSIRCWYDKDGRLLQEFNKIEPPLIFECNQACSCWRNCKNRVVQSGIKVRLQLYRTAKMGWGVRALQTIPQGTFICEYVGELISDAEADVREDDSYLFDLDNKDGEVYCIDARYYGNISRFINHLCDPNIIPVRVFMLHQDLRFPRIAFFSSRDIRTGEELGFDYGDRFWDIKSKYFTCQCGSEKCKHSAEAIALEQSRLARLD
#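 Compounds were preincubated with 20 nM G9a for 15 min, after which biotinylated H3K9 peptide (500 nM) and SAM (20 uM) started a 2 h room-temperature reaction. Monomethylated product was quantified by antibody-based AlphaScreen chemiluminescence.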
# Anesthetic bind = candidate novel general anesthetic via apoferritin binding; P02791; apoferritin/1-aminoanthracene competitive binding, fluorescence; Potency, µM (titrated, usually from 77.5 µM), for the others: at the top dose activity change, negative = displacement, hits mostly inhibitors; 350,000 compounds, 0.074% hits; AID 485281; note: % is set by controls: 0 for no effect and ±100 for the full control effect; nearly all actives have a fitted effect of over 20% in size
#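 Steps: apoferritin (10 uM) was premixed with half-saturated 1-AMA in PBS, compounds were pin-transferred, plates stood 10 min at room temperature, fluorescence was read at 380/535 nm, and curves were fitted with a Hill equation.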
# Pol iota inh = inhibitors of human DNA polymerase iota. Pol iota fluorescent replication assay, 10 min. 390,000 compounds, 1% hits. Q9UNA4. AID 588590. Potency, µM (highest dose often 115 µM), inactives show at the highest dose activity, negative = inhibition, usual class: inhibitors
# Target sequence (Q9UNA4 whole entry, looked up): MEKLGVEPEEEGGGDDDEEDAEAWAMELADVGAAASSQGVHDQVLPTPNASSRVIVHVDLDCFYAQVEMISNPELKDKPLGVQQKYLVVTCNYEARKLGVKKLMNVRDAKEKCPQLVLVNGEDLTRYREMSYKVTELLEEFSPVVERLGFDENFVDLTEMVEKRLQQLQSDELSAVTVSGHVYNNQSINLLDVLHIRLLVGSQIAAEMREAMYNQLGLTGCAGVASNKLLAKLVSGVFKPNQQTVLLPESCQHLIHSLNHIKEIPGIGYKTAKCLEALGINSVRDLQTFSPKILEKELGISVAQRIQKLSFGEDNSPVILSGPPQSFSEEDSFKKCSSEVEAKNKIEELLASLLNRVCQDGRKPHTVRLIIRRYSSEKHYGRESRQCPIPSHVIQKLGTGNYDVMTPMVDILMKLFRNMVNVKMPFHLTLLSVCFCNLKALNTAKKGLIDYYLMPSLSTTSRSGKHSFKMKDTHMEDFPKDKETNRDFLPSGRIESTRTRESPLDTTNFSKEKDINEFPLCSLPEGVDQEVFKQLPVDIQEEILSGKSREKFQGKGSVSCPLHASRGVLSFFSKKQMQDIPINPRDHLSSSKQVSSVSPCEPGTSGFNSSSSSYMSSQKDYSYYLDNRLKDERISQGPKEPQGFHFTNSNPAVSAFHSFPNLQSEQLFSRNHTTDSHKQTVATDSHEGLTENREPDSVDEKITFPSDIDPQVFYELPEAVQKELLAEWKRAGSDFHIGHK
#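 Fluorescent replication assay read twice, at 0 min and 10 min after adding 50 nM (final) substrate. Enzyme (10 nM) and compounds were first incubated 15 min at room temperature; enzyme-free buffer wells were negative controls.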
# An asterisk follows results filed as active; ? = inconclusive; · = no result given; & = joins results of further samples; [ ] = remark or other dose. Calls come from the whole dose curve; as a rule, active = well fitted curve in the direction sought with a large enough effect; inconclusive = small, poorly fitted or top-dose-only effect, or another doubt; inactive = no such curve, though single readings can be large; an effect the other way counts as inactive or inconclusive. Potency is the fitted concentration of half-maximal effect. Some of the compounds tested; the hit share may differ from the screen's.
SMILES,Pol kappa inh,POLH inh,APE1 inh,POLB inh,BLM inh,G9a inh,Anesthetic bind,Pol iota inh
Cc1c(C(=O)N2CCN(c3ccccc3F)CC2)sc2ncn(CC(=O)N3CCOCC3)c(=O)c12,-11%,-15%,-2%,0%,1%,16%[2.33 µM],-14%,23%
c1ccc(Cn2c(SCCN3CCOCC3)nnc2-c2cccnc2)cc1,-1%,-10%,-2%,1%,3%,10µM*,-11%,-2%
Cc1noc(C)c1CNCc1ccccc1,3%,-7%,-8%,15%,2%,4.5µM*,8%,8%
CN1CCN(c2nc(-c3ccncc3)nc3ccccc23)CC1,-12%,6%,8%,-11%,63%[activator],-3%[59 µM],-4%,-18%
Cc1ccc(CSc2nnc(-c3ccccn3)n2N)cc1,8%,-11%,3%,21%,-5%,6%,-8%,48%[activator]
Cc1ccccc1N(CC(=O)N1CCOCC1)S(C)(=O)=O,-20%,11%,5%,-23%,-6%,5%,-3%,25%
COc1cc(CN2CCC(C(=O)NC3CCCC3)CC2)cc(OC)c1O,-17%,-13%,2%,-1%,-1%,8.9µM*,-16%,15%
COc1ccccc1CC(=O)Nc1cc(C)ccn1,5%,-20%,53%[activator],27%,-2%,1%,-16%,17%
CCNc1c2c(nc3ccccc13)CC(C)(C)CC2=O,-11%,-11%,-3%,19%,-9%,5.6µM*,-13%,21%
Cc1ccc(-n2cnc3cc(NCc4cccs4)ccc32)cc1,-23%,-9%,-7%,30%,-2%,?,-22%,13%
CC1(C)Cc2c(cnn2-c2ccc(F)cc2)C(NC(=O)CN2CCCCC2=O)C1 (stereo unspecified),15%,-7%,15%,13%,-12%,40µM*,-5%,24%
O=C(NC1CCCCC1)c1cccc(N2C(=O)CCC2=O)c1,-10%,-18%,1%,·,·,-44%,·,28%
CC(=O)n1cc(N(C(=O)CCl)c2ccc(Cl)cc2)c2ccccc21,-15%,28µM*,21%,15%,-7%,·,-4%,?
COCCn1nnnc1C(c1ccccn1)N1CCN(c2cc(C)ccc2C)CC1 (stereo unspecified),-5%,-8%,1%,?,-5%,?,-10%,?
O=S(=O)(Nc1cccc(-c2ccc(N3CCCCC3)nn2)c1)c1cccs1,-2%[60.1 µM],-10%,·,1%,-4%,?,-12%,-4%
COc1ccccc1CNc1ncc(-c2ccccc2)n1C,-5%,-9%,7%,38%,2%,·,-15%,?
S=C(Nc1cccc2ccccc12)NC1CCCCC1,-12%,-6%,-1%,-15%,-7%,50µM*,?,1%
O=C(CN1CCN(C2CCCCC2)CC1)Nc1ccccc1N1CCCCC1,-7%,-10%,-6%,15%,2%,?,-20%,-10%
CN(CC(=O)Nc1ncn[nH]1)S(=O)(=O)c1cc(Cl)ccc1Cl,-9%,-21%,19%,14%,-2%,2%,-2%,23%
O=C1C2CC=CCC2C(=O)N1c1ccc(NCCc2ccccc2F)c([N+](=O)[O-])c1 (stereo unspecified),-10%,-14%,-1%,30%,-5%,40µM*,-11%,0%
O=C(CSc1nccn1Cc1ccco1)Nc1cc(C(F)(F)F)ccc1Cl,-11%[60.1 µM],-3%,·,-17%,-7%,?,-8%,0%
COc1ccc([N+](=O)[O-])cc1NC(=O)C(C)OC(=O)/C=C/c1ccco1 (stereo unspecified),-13%,?,?,?,-11%,?,-19%,-4%
N#Cc1nc(-c2cccs2)oc1NCc1ccc(Cl)cc1,-10%,-14%,-5%,0%,-14%,7.9µM*,2%,17%
COc1ccc(NC(=O)CN(C)CC(=O)Nc2cccc3ccccc23)c(OC)c1,-7%,-10%,-2%,·,·,18µM*,·,32%[activator]

# At a glance, 6 of the compounds above:
SMILES,Pol kappa inh,POLH inh,APE1 inh,POLB inh,BLM inh,G9a inh,Anesthetic bind,Pol iota inh
COc1ccccc1CNc1ncc(-c2ccccc2)n1C,-5%,-9%,7%,38%,2%,·,-15%,?
S=C(Nc1cccc2ccccc12)NC1CCCCC1,-12%,-6%,-1%,-15%,-7%,50µM*,?,1%
O=C(CN1CCN(C2CCCCC2)CC1)Nc1ccccc1N1CCCCC1,-7%,-10%,-6%,15%,2%,?,-20%,-10%
CN(CC(=O)Nc1ncn[nH]1)S(=O)(=O)c1cc(Cl)ccc1Cl,-9%,-21%,19%,14%,-2%,2%,-2%,23%
O=C1C2CC=CCC2C(=O)N1c1ccc(NCCc2ccccc2F)c([N+](=O)[O-])c1 (stereo unspecified),-10%,-14%,-1%,30%,-5%,40µM*,-11%,0%
O=C(CSc1nccn1Cc1ccco1)Nc1cc(C(F)(F)F)ccc1Cl,-11%[60.1 µM],-3%,·,-17%,-7%,?,-8%,0%

# Remaining list, next part:
SMILES,Pol kappa inh,POLH inh,APE1 inh,POLB inh,BLM inh,G9a inh,Anesthetic bind,Pol iota inh
CN(C)CCCNCC(=O)Nc1ccccc1N1CCOCC1,1%,-23%,-5%,8%,5%,?,-1%,15%
COc1ccc(C(=O)NC(=S)Nc2ccc3c4c(cccc24)CC3)cc1OC,-16%,-9%,2%,0%,-2%,-7%,-6%,-3%
O=C(CN1CCC(Cc2ccccc2)CC1)Nc1ccc2c(c1)OCCO2,-12%,-13%,0%,-14%,-4%,4.5µM*,-17%,18%
CCCc1ccc(C(=O)NNc2ccc(F)cc2)cc1,2%,-24%,3%,-14%,-10%,·,-8%,53%[activator]
C=CCOc1c(Br)cc(CNc2ccc(NC(=O)CCC)cc2)cc1OCC,-2%,-21%,-4%,-2%,-10%,·,-4%,7%
O=S(=O)(/C=C/c1ccccc1)N1CCN(c2ccccc2)CC1,-13%,-2%,0%,0%,-2%,-7%,-11%,13%
Oc1ccc(Br)cc1C=Nc1cccn2cc(-c3ccccc3)nc12,3%,-5%,5%,5%,-7%,?,229%[activator],40%[activator]
CCOC(=O)N1CCC(NCCNC(=O)c2ccccc2Cl)CC1,1%,-2%,-7%,35%,0%,3.5µM*,-6%,37%[activator]
Cc1ccc2nccc(C(=O)N3CCCC(Nc4ccc(C)c(C)c4)C3)c2c1 (stereo unspecified),2%,-20%,-9%,6%,-3%,·,1%,-13%
COc1ccc(Nc2cc(C(=O)NCCCN(C)Cc3ccccc3)c3ccccc3n2)cc1OC,-20%[60.1 µM],-19%,·,?,-4%,?,?,-13%
Cc1cccc(-n2cc(-c3ccccc3)nc2SCC(=O)Nc2ccccc2Cl)c1,-14%[60.1 µM],-9%,·,14%,-5%,?,107%[activator],-10%
Cc1ccc2[nH]c(C(=O)N3CCCC(Nc4ccc(F)cc4)C3)cc2c1 (stereo unspecified),-12%,-13%,-20%,16%,-11%,·,-29%,-19%

# Another view of 3 compounds above.
> Oc1ccc(Br)cc1C=Nc1cccn2cc(-c3ccccc3)nc12
  Pol kappa inh = 3%
  POLH inh = -5%
  APE1 inh = 5%
  POLB inh = 5%
  BLM inh = -7%
  G9a inh = ?
  Anesthetic bind = 229%[activator]
  Pol iota inh = 40%[activator]

> Cc1ccc2nccc(C(=O)N3CCCC(Nc4ccc(C)c(C)c4)C3)c2c1 (stereo unspecified)
  Pol kappa inh = 2%
  POLH inh = -20%
  APE1 inh = -9%
  POLB inh = 6%
  BLM inh = -3%
  G9a inh = ·
  Anesthetic bind = 1%
  Pol iota inh = -13%

> O=S(=O)(/C=C/c1ccccc1)N1CCN(c2ccccc2)CC1
  Pol kappa inh = -13%
  POLH inh = -2%
  APE1 inh = 0%
  POLB inh = 0%
  BLM inh = -2%
  G9a inh = -7%
  Anesthetic bind = -11%
  Pol iota inh = 13%

# Additional records:
SMILES,Pol kappa inh,POLH inh,APE1 inh,POLB inh,BLM inh,G9a inh,Anesthetic bind,Pol iota inh
O=C(NCCc1ccccc1)c1ccnc(/C=N/O)c1,-14%,-18%,2%,-1%,3%,-50%[2.33 µM],-1%,-25%
CCN(CC)C(=O)C1CCCN(Cc2ccccc2)C1 (stereo unspecified),-5%,-6%,-2%,-12%,0%,25µM*,1%,0%
CCOCCCNC(=O)c1ccccc1Br,-7%,-10%,0%,3%,-2%,-3%[59 µM],2%,14%
CCCCN=c1scc(-c2ccc3c(c2)NC(=O)CO3)n1N=C1CCCC1,-7%,-11%,-4%,-9%,-9%,8.9µM*,?,10%
C=CCN(CC=C)CCCOc1ccccc1C(=O)OC,-4%,-4%,0%,-7%,4%,3.5µM*,-5%,-4%
COc1ccc(OC)c(NC(=O)CSc2ccnc(=O)[nH]2)c1,-4%[60.1 µM],-8%,·,-6%,2%,8%[59 µM],-5%,9%
CCOc1cccc(OCCCCN2CCOCC2)c1,-1%,4%,-7%,8%,-8%,?,-6%,6%
Cc1ccc(OCc2cc(=O)n3c4c(sc3n2)CCCC4)cc1C,-13%,-6%,·,79%,-3%,5%[59 µM],-3%,23%
O=C(c1ccccc1)c1ccc(OCCOCCN2CCN(Cc3ccccc3)CC2)cc1,-15%,-9%,19%,?,-9%,·,-13%,?
COc1ccc(/C(O)=C2/C(=O)C(=O)N(CCN3CCOCC3)C2c2ccccn2)cc1 (stereo unspecified),-21%,4%,2%,8%,-5%,10µM*,-11%,-8%
COC(=O)C1C(=O)C2=C(CC1C)NC(C)=C(C(=O)OC1CCCCC1)C2c1ccc(N(C)C)cc1 (stereo unspecified),-9%,?,12%,11%,-5%,?,-8%,-2%
CCN(CC)S(=O)(=O)c1ccc(C)c(NC(=O)CN2CCN(Cc3ccccc3)CC2)c1,-8%,-23%,2%,-1%,-1%,?,-3%,?
O=C(CSc1nnc(-c2ccco2)n1Cc1ccccc1)NC(=O)NCc1ccco1,-1%,?,-7%,?,-9%,-51%[59 µM],-16%,?
Cc1c(C(=O)Nc2c(F)cc(F)cc2Br)sc2ncn(CC(=O)N3CCCC3)c(=O)c12,-32%,6%,-13%,1%,-3%,20%,-1%,-5%
O=C(Cn1c(=O)n(Cc2ccco2)c(=O)c2ccccc21)Nc1cccc(Cl)c1,0%,4%,-6%,-24%,-1%,-10%[59 µM],8%,-2%
O=C(CSc1ccc(-c2ccccn2)nn1)Nc1ccc(F)cc1F,-16%&2%,4%&1%,6%,4%&1%,-13%&0%,3.2µM*,-5%&3%,-5%&18%
CN1CCN(S(=O)(=O)c2cccc(C(=O)Nc3nc(-c4ccccc4)cs3)c2)CC1,-26%,-11%,-4%,-15%,1%,?,?,-7%
O=S(=O)(Nc1ccc2c(c1)OCCO2)c1ccc2oc3ccccc3c2c1,-19%,-21%,-6%,0%,-12%,-2%[59 µM],-4%,3%
C=CCNC(=S)N1CCN(Cc2ccccc2)CC1,14%,-5%,-1%,-14%,-4%,7.9µM*,-1%,11%
O=C(O)c1ccc(NS(=O)(=O)c2ccc3c(c2)OCCO3)cc1,4%,-10%,-2%,24%,-1%,?,-7%,12%
CCN1CCN(S(=O)(=O)c2ccc(Cl)c(C(=O)N(CC)CC(=O)Nc3ccc(OC)cc3)c2)CC1,6%,-11%,2%,-15%,-11%,·,-5%,24%

# Screening results (PubChem)
